# TRPML1 blocker = blocks the human TRPML1 channel. Q9GZU1. TRPML1-inducible cells, Ca2+ dye fluorescence, FDSS; active compounds read low; inhibition of EC80 agonist-evoked calcium signal. activity change, negative = inhibition, % (no concentration beside the values). 390,000 tested, 0.02% active; in the data active means activity change below about -50%; inconclusive means about -30% to -50%; inactive means above about -30%;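 note: stimulus is agonist 54-4 at its EC80 concentration; % is set by controls: 0 for no effect and ±100 for the full control effect; compound concentration not given in the record; the text of the record puts the active cut at -80%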
# Target sequence (Q9GZU1 whole entry, looked up): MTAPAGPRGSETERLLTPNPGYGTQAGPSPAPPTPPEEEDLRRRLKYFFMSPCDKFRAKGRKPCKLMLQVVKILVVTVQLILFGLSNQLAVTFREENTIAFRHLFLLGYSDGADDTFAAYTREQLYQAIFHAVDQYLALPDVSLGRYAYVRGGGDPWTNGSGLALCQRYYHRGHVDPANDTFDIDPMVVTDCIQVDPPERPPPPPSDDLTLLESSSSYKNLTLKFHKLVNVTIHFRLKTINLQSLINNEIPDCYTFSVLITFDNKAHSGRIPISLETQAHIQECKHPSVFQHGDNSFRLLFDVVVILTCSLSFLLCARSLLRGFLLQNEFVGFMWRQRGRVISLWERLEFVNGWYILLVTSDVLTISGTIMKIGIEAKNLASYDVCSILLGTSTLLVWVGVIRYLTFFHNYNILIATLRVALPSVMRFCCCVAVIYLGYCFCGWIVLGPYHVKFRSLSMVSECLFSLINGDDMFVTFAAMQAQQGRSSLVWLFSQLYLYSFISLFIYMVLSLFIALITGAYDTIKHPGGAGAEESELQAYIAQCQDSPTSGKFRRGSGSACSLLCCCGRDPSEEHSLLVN
#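 Calcium fluorescence in TRPML1-DL cells induced overnight with Tet: a 110 s read after compound pin addition, then a 110 s antagonist read after challenge with 54-4 at 4 uM final (EC80).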
# gsp antag = gsp mutant antagonism | gsp-mutant cells, cAMP HTRF, 30 min; control for the full effect not named in the record | Potency, µM (highest dose often 76.9 µM), for the others: at the top dose activity change, negative = inhibition, most hits filed as inhibitors | 340,000 tested, 0.4% active | AID 624288; active = falling curve of any shape with a large fitted effect; inconclusive = falling curve, mostly with a smaller effect; inactive = flat or rising curve; cell line not stated here;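 note: intracellular cAMP measured with PDE inhibitor Ro 20-1724 present during compound exposure; potency is the fitted concentration of half-maximal effect; % is set by controls: 0 for no effect and ±100 for the full control effect; nearly all actives have a fitted effect of over 65% in size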
#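 HTRF cAMP read-out (cAMP-d2 plus anti-cAMP antibody-K in lysis buffer, 30 min RT). Before lysis, cells are exposed to compounds with […] for 30 min at 37C in DPBS containing Ca/Mg, BSA and Tween 20.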
# Menin MLL FP FL = displaces fluorescein MLL peptide from human menin | FP activity change, % at 61.4 µM | 290,000 tested, under 10 active | Fluorescence polarization, fluorescein-MLL peptide displacement from menin | AID 1766; inconclusive = falling polarisation curve, or a change in total fluorescence; inactive = total fluorescence flat and polarisation flat or rising; no compound was filed as active; the % refers to the polarisation; negative = inhibition;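 note: % of control where 0% means no effect; inhibitors lower the polarisation; unlabelled MLL peptide was the positive control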
# TRPML1 agonist = agonists of human TRPML1 channel; AID 624414; TRPML1-expressing cells, Ca2+ dye fluorescence, FDSS; host cell line not named in the record; reference of the full effect not given here; Q9GZU1; 410,000 tested, 0.12% active; activation, % (test concentration not listed); in the data active = activation above about 50%; inconclusive = about 30% to 50%; inactive = below about 30%; note: 0% is about no effect; the text of the record puts the active cut at 80%
#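 Cells: TRPML1-DL, 1X Tet inducer, ~16 h at 37 degrees C/5% CO2. Dye: ABD Ca8 no-wash + quencher, 45-90 min RT. Read: 10 s baseline, compound add, 110 s agonist phase; 54-4 EC80 (4uM final), 110 s antagonist phase.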
# ClpP mod = qHTS Assay for Activators of ClpP; ATP-dependent Clp protease proteolytic subunit (Bacillus subtilis (strain 168)), P80244; 340,000 tested, 1.9% active; Potency, µM (top dose mostly 57.5 µM), inactives show at the highest dose activity change, negative = active; AID 651965, 2013; purified B. subtilis ClpP, FRET peptide cleavage, 20 min; active = well fitted falling curve with a large enough effect; inconclusive = small, poorly fitted or top-dose-only effect; inactive = no such curve, though single readings can be large or run the other way; note: potency is the fitted concentration of half-maximal effect; the source files actives as falling curves though it sought activators and does not explain the sign; nearly all actives have a fitted effect of over 65% in size; many hits overshoot -100%
# Target sequence (P80244 whole entry, looked up): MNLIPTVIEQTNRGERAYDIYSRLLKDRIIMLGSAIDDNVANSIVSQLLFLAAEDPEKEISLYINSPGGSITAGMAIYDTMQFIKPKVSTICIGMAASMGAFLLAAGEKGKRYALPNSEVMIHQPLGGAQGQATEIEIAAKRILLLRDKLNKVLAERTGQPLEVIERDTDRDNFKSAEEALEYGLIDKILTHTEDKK
#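 Purified B. subtilis ClpP, 10 microg/mL final in Tris/HCl pH8 with KCl, BSA, glycerol and Tween-20, cleaved an Abz/nitrotyrosine-quenched decapeptide. Fluorescence (ex 320, em 430) was read at 0 and 20 min at room temperature. Delta was normalized to 5.8 microM ADEP and DMSO/no-enzyme controls.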
# gsp ag = gsp mutant agonism; Potency, µM (titrated, usually from 76.9 µM), for inactives: top-dose activation (cAMP increase), actives largely listed as activators; gsp mutant cells, cAMP HTRF, 30 min; control for the full effect not named in the record; 340,000 tested, 0.13% active; active = well fitted activation curve with a large enough effect; inconclusive = small, poorly fitted or top-dose-only effect, or another doubt; inactive = no such curve, though single readings can be large or run the other way; cell line not stated here;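 note: phosphodiesterase inhibitor Ro 20-1724 added with compounds to block cAMP breakdown; potency is the fitted concentration of half-maximal effect; nearly all actives have a fitted effect of over 60% in size; about a fifth of the inactives were tested at one dose only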
#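 Cells in DMEM/10% FBS with G418 were pretreated with compounds in DMSO plus […] (300 uM stock) for 30 min at 37C. cAMP was measured by HTRF (cAMP-d2 plus anti-cAMP antibody-K) after 30 min at room temperature.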
# Starred values were filed as active, the others as inactive; ? = inconclusive; nt = not tested or not shown; & = joins results of further samples; [ ] = another dose, or the depositor's remark.
SMILES	gsp ag	gsp antag	ClpP mod	TRPML1 agonist	Menin MLL FP FL	TRPML1 blocker
COc1cc(C2C(C(=O)/C=C/c3ccccc3)=C(O)C(=O)N2c2ccccn2)ccc1O (centres undefined)	-28%	?	nt	-0.2	?	4
CCO[C@H]1OC(C(=O)NC2CC2)=C[C@@H](C)[C@@H]1CCCO	nt	4%	-3.9%	-0.1	-7.3	-10
O=C(NNC(=O)C1CC1c1ccccc1)c1ccccc1F (centres undefined)	-34%[inhibitor]	21%	1.1%	-0.5	-4.9	14
O=C(NCCCN1CCOCC1)c1csc2c1CCCC2	-10%	5%	-0.5%	0.1	5.6	-10
COc1ccccc1C1C2=C(N=C3SCC(=O)N31)c1ccccc1CC2 (centres undefined)	?	9%	-2.1%	0.2	0.2	17
CCCC(c1nnnn1CCOC)N1CCN(c2cccc(OC)c2)CC1 (centres undefined)	-2%	-1%	-0.4%	-1.0	-2.2	-2
COc1ccc(CNC(=O)CN(c2cc(C(F)(F)F)ccc2Cl)S(C)(=O)=O)cc1	nt	nt	-2.3%	-1.2	nt	4
COc1cc(C(C(=O)NC2CCCC2)N(CCO)C(=O)Cn2nnc(-c3ccc(C)o3)n2)ccc1O (centres undefined)	9%[15.4 µM]	-3%	nt	-0.3	4.2	-3
O=C(NCc1ccccc1)c1nccnc1CO	-10%[15.4 µM]	17%	16µM*	-1.1	-4.4	2
CCn1c(CNc2ccc(Cl)cc2)nnc1SCC#N	-16%	2%	1.2%	0.1	0.7	19
COc1ccc(NC(=O)c2ccc3c(c2)C(=O)N(Cc2cccnc2)C3=O)cc1	-5%	-2%	0.0%	-0.7	1.4	-17
COc1cccc(NC(=O)CN(C)C(=O)c2ccc(COc3ccccc3)cc2)c1	-3%	-21%	0.7%	-0.6	nt	-12
Cc1cccc(NC(=O)NCC(c2ccco2)N2CCCCC2)c1 (centres undefined)	11%	6%	1.2%	-1.1	3.4	3
O=C(NCCCN1CCOCC1)/C(=C/c1cccnc1)NC(=O)c1ccccc1	0%[15.4 µM]	8%	nt	0.5	-4.5	10
O=C(N/N=C/c1ccc2nccnc2c1)c1ccc(Br)cc1	19%	2%	-2.8%	0.3	-0.4	-8
C=CCn1c(C)nnc1SCC(=O)N1c2ccccc2NC(=O)C1(C)C	-45%[inhibitor]	nt	-1.9%	-0.3	nt	0
Cc1cccc(N=C2NC(=O)CS2)c1C	-12%	-4%	4.6%	0.4	-0.1	9
C=CCc1cccc(CNn2cnnc2)c1O	-20%	5%	nt	0.2	-2.3	6
CCOCCCNC(=O)c1c[nH]c2ccc(S(=O)(=O)Nc3cccc(Cl)c3C)cc2c1=O	nt	nt	?	1.8	nt	17
COC(=O)N(C)C[C@@H]1OCc2cn(nn2)CCCC(=O)N([C@H](C)CO)C[C@H]1C	nt	nt	-2.1%	2.1	nt	-14
COc1ccc(-c2cc(C(F)(F)F)nc(-n3cc(Cl)cn3)n2)cc1	-11%	-1%	4µM*	2.1	14	42
CC1CCCN(c2csc3ccccc3c2=O)C1 (centres undefined)	nt	nt	-18%	2.2	nt	2
CCC(C)Sc1nc2c(c(=O)n1C)SC(C)C2 (centres undefined)	0%	-2%	0.7%	-0.4	3.5	2
Cn1cc(CNC(=O)C2CCCCC2)cn1	-50%[inhibitor]	13%	1.7%	0.3	2.3	2
Cc1ccc(CSCCNC(=O)CN(c2cccc(C)c2C)S(=O)(=O)c2ccccc2)cc1	nt	nt	-2.8%	1.3	nt	63

# Next entries
SMILES	gsp ag	gsp antag	ClpP mod	TRPML1 agonist	Menin MLL FP FL	TRPML1 blocker
CCn1c(CCNC(=O)c2ccc(Cl)c(Cl)c2)nnc1SCCOc1ccc(OC)cc1	-14%	?	0.5%	4.4	-9.1	10
Cn1cc(CNC(=O)c2cc(COc3ccc4c(c3)CCCC4)on2)cn1	-6%	-4%	-1.8%	1.1	0.1	-8
Cc1ccc(NC(=O)COC(=O)c2nn(C)c(=O)c3ccccc23)cc1F	18%	2%	-0.6%	26	nt	-7
COc1ccc(C(=O)NCCn2ccc3ccccc32)cc1	-14%	5%[15.4 µM]	-1.1%	2.4	-18	-12
CCOc1ccc2nc(Cl)c(CN(C(C)=O)C3CCCCC3)cc2c1	-7%[15.4 µM]	0%	nt	-0.2	0.6	-6
O=C(Nc1c2c(nn1-c1ccc(F)cc1)CS(=O)C2)c1ccc2c(c1)OCO2 (centres undefined)	-42%[inhibitor]	2%	-18%	0.1	nt	2
COc1cc(C(=O)NCCC(=O)N2CCCCC2)cc(OC)c1OC	-6%	3%	nt	-0.6	-0.8	-22
CC(C)Oc1ccc(CN2CCC(n3nccc3NC(=O)CCc3ccccc3)CC2)cc1	?	7%	3.5%	0.3	0.8	32
Cc1c(C(=O)N2CCOCC2)sc(NC(=O)c2ccccc2F)c1C#N	3%[15.4 µM]	-3%	nt	0.6	23	17
COc1ccc(NC(=O)CCNC(=O)c2ccco2)cc1OC	-16%[15.4 µM]	6%	nt	-0.1	1.9	-23
COc1cccc(-c2nn(-c3ccccc3)cc2CN(C)C(C)c2ccncn2)c1 (centres undefined)	-3%[15.4 µM]	-13%	nt	3.9	7.1	24
O=C(NCCc1ccccc1)c1ccc2c(c1)nc1n2CCOC1	nt	nt	-0.4%	0.1	nt	1
COc1ccccc1-c1n[nH]c(=S)n1-c1ccccc1	?	2%	-11%	1.8	4.1	-3
O=C(NCC(c1cccs1)S(=O)(=O)c1cccs1)c1ccccc1 (centres undefined)	nt	nt	-4.6%	1.3	nt	?
CCOC(=O)c1c(C)n(CC)c2ccc(OC(=O)c3ccc([N+](=O)[O-])cc3)cc12	11%	-4%	-0.6%	0.0	3.1	4
Cc1cccc(CCNC(=O)CC2C(=O)NCCN2Cc2ccc(F)c(F)c2)n1 (centres undefined)	16%	11%	-0.8%	-0.5	-7.8	12
COc1cc(/C=N/Nc2ccccc2[N+](=O)[O-])ccc1OC(=O)c1ccccc1F	-33%	17%	nt	-0.3	2.3	2
COC(=O)c1ccccc1NC(=O)COc1ccc(S(=O)(=O)N2CCCC2)cc1C	-5%	0%	-29%	2.6	2.1	5
O=C(CN1C(=O)NC2(CCCCCCC2)C1=O)N1CCN(C(=O)c2ccco2)CC1	14%	0%	-1.0%	0.8	2.4	6
CCN(CC)c1ccc(C(=O)c2cnc(/N=C/N(C)C)s2)cc1	36%[15.4 µM]	-46%	nt	0.2	31[activator]	-2
CC1(C)Cc2c(sc3nc(-c4ccccc4)oc(=O)c23)CO1	6%[15.4 µM]	-15%	-1.6%	0.5	-0.4	26
Cc1ccc(C(C)C)c(OCC(O)CN2CCc3ccccc3C2)c1 (centres undefined)	-1%	-11%	nt	1.0	2.1	34
CCC(=O)N(CCC(Cc1ccccc1)c1ccc2c(c1)OCO2)Cc1ccccc1F (centres undefined)	-8%[15.4 µM]	-41%	1.3%	7.5	-8.3	77
COC(=O)c1nnn(CC(=O)Nc2cc(F)ccc2F)c1C(=O)OC	nt	nt	-0.7%	0.7	nt	-2
COC(=O)C1=C(NC(=O)C2CCCCC2)CCS1	?	5%	-3.6%	1.2	-5.8	-4

# (list continues)
SMILES	gsp ag	gsp antag	ClpP mod	TRPML1 agonist	Menin MLL FP FL	TRPML1 blocker
COC(=O)CSc1ncc(C#N)c(N)n1	2%	14%	-30%	2.8	3.6	-11
O=C(Nc1nncs1)c1ccccc1NS(=O)(=O)c1cccs1	-5%	-9%	1.3%	-0.3	-1.6	-8
O=C(O)Cc1sc(-c2ccccc2Cl)nc1-c1ccccc1	?	-2%	nt	-0.4	4.4	0
C[C@@H]1C(NC(=O)c2ccccc2)CC2CC1C2(C)C (some centres undefined)	?	0%	nt	-0.5	-3.8	-7
Cc1ccc(S(=O)(=O)N(CC(=O)Nc2cccc(C)c2C)C(=O)N2CCN(C)CC2)cc1	0%[15.4 µM]	3%	-1.0%	-0.3	nt	-5
Cc1ccc(OCCn2c(C)c(/C=N/n3cnnc3)c3ccccc32)cc1	-20%	8%	-2.6%	-0.8	-0.1	-2
CCN1CCc2c(OCC(=O)Nc3ccccc3)cccc2C1=O	?	-3%	?	0.8	nt	-9
COc1ccc(C(=O)N2CCN(Cc3ccc(OC)c(OC)c3)CC2)cc1	-29%	8%	nt	-0.2	-0.5	-10
COc1ccc(C(CNC(=O)CN(C)S(=O)(=O)c2ccc(C)cc2)N2CCCC2)cc1 (centres undefined)	-36%[inhibitor]	8%	nt	-0.1	nt	6
COCCN(C(=O)Nc1ccc(OC)cc1OC)C1CCN(C(C)=O)CC1	-5%	-3%	0.8%	-0.1	-2.8	18
Cc1nc2c(C)cccc2c2c1COC2	9%[15.4 µM]	-3%	-0.9%	0.5	-1.2	-20
CCN1C(=O)C(=O)N(CC(=O)Nc2cc(C)ccc2C)C1=O	-115%[inhibitor]	3%	1.3%	-0.5	nt	14
COc1ccc(C(=O)c2cn(Cc3ccccc3)c3ccccc3c2=O)cc1OC	nt	nt	-2.1%	0.9	nt	-14
COC(=O)c1ccc(C(=O)OC)c(NC(=S)N2CCN(c3ccccc3)CC2)c1	5%	-4%	-0.4%	1.6	-7.0	89
Cc1occc1-c1nnc(SCC(=O)N2c3ccccc3CCc3ccccc32)n1C	21%	-10%	-1.4%	-1.0	3.9	-3
Cc1cccc(NC(=O)Cc2ccc(NC3=NC4CS(=O)(=O)CC4S3)cc2)c1 (centres undefined)	-38%[inhibitor]	4%	1.1%	0.0	2.4	5
O=C(CCc1nnc(Cc2ccc(-c3ccccc3)cc2)o1)NCCc1cccnc1	-27%	-12%	-0.2%	1.0	-2.9	-19
Cc1cc(C)cc(NC(=O)C2CCN(C(=O)c3cnn(-c4ccccc4)c3-n3cccc3)CC2)c1	nt	nt	2.0%	1.3	nt	-5
COc1ccccc1N1CCN(C(=O)c2ccc3c(c2)CCN3S(=O)(=O)c2ccccc2)CC1	-50%[inhibitor]	-30%	-0.1%&0.0%	-0.7&0.3	nt	39&14
COc1ccc(NC(=S)N2CCN(Cc3ccco3)CC2)c(OC)c1	9%	1%	-20%	0.3	1.8	-7
Cc1cc(C)n(CC(=O)NC2CCCc3c2cnn3-c2ccc(C)c(C)c2)n1 (centres undefined)	?	?	-0.6%	-0.2	-3.4	7
O=C(Cn1cnc2ccccc2c1=O)N1CCN(c2ccccc2)CC1	-41%[inhibitor]	2%	-0.7%	-0.6	1.3	-2
Cc1ccc(C)c(CSc2nc3[nH]ncc3c(=O)[nH]2)c1	-8%	9%	nt	-0.4	-3.6	-4
Cc1ccc(-c2nnc(Nc3ccc(S(N)(=O)=O)cc3)c3ccccc23)cc1S(=O)(=O)N1CCCCC1	nt	nt	-0.8%	-0.6	nt	16

# Compound activity (PubChem BioAssay)
